Screening data as filed in PubChem BioAssay.
gsp antagonist: antagonizes gsp, the McCune-Albright syndrome mutation. gsp-mutant cells, cAMP HTRF, 30 min; control for the full effect not named in the record. Potency, µM (top dose mostly 76.9 µM), inactives show at the top dose activity change, negative = inhibition, most hits filed as inhibitors. hit rate 0.4% among 340,000; active = falling curve of any shape with a large fitted effect; inconclusive = falling curve, mostly with a smaller effect; inactive = flat or rising curve; cell line not stated here;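 further: intracellular cAMP measured with PDE inhibitor Ro 20-1724 present during compound exposure; potency means the concentration at half of the fitted maximal effect; on the % scale 0 is the no-effect control and ±100 the full control effect; nearly all actives have a fitted effect of over 65% in size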
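Measurement of cellular cAMP by homogeneous time-resolved fluorescence following a 30 min compound exposure at 37C. The PDE inhibitor […] was present throughout; the assay buffer was DPBS with 0.05% BSA and 0.005% Tween 20.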
Sfp inh: blocks B. subtilis Sfp PPTase activity. hit rate 3.5% among 310,000. Potency, µM, without a hit: max response, negative = inhibition, usual class: inhibitors. Biochemical Sfp PPTase activity, qHTS. AID 1490. Q9F4F7; active means well fitted inhibition curve with a large enough effect; inconclusive means small, poorly fitted or top-dose-only effect, or another doubt; inactive means no such curve, though single readings can be large or run the other way;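 further: the enzyme is Sfp with the accession as filed and its product quenches rhodamine fluorescence; potency means the concentration at half of the fitted maximal effect; 0% = enzyme reaction without inhibitor and -100% = no enzyme wells; top concentration of the series not given in the record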
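Step 1, compound plus 15 nM Sfp-PPTase, 15 min, room temperature. Step 2, add rhodamine-CoA (5 uM) and BHQ-2-YbbR (12.5 uM). Step 3, read 525/598 nm fluorescence at 0 and 30 min.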
TRPV1 PAM: enhances activation of the human vanilloid receptor TRPV1; Q8NER1; TRPV1-expressing cells, Fluo-8 calcium influx, capsaicin EC20 potentiation; host cell line not named in the record; control for the full effect not named in the record; potentiation, % at 8.33 µM; hit rate 0.02% among 320,000; AID 540277; active means potentiation above 80%; inconclusive means 30% to 80%; inactive means below 30%; further: 0% is about no effect
Target sequence (Q8NER1 whole entry, looked up): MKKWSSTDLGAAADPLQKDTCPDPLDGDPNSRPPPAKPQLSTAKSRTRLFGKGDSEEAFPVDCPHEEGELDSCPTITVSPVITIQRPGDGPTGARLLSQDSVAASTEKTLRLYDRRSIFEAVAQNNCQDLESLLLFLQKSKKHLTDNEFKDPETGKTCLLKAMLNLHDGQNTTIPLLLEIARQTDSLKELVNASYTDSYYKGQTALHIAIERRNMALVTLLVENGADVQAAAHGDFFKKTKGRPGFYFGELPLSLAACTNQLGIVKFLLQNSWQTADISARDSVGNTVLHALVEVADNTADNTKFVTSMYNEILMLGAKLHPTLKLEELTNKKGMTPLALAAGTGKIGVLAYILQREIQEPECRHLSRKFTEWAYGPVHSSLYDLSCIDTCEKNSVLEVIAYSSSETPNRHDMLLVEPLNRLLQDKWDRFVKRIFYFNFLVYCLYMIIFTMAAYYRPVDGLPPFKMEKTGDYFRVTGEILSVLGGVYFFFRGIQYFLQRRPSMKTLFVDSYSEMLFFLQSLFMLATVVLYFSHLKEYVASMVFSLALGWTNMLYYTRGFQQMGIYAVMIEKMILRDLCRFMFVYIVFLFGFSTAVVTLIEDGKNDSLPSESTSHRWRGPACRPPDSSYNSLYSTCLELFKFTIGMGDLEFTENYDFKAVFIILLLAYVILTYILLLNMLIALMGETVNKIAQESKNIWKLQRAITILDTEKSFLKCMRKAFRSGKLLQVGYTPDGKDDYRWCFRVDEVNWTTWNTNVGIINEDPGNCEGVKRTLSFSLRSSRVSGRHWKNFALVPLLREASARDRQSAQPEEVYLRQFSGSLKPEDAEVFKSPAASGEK
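Cells expressing TRPV1 were dye-loaded with Fluo-8 and read kinetically: 10 s baseline, 3 min after compound (agonist portion), then 2 min after EC20 capsaicin (allosteric enhancer portion). Calcium-bound dye fluorescence at 480/520 nm.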
Menin-MLL FL inh: inhibitors of human menin-MLL interaction, wild-type MLL peptide. 290,000 tested, under 10 active. Fluorescence polarization, fluorescein-MLL peptide displacement from menin. FP activity change, % at 61.4 µM; inconclusive = falling polarisation curve, or a change in total fluorescence; inactive = total fluorescence flat and polarisation flat or rising; no compound was filed as active; the % refers to the polarisation; negative = inhibition;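 further: % of control where 0% means no effect; inhibitors lower the polarisation; unlabelled MLL peptide was the positive control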
D2 potentiator: potentiates the human D2 dopamine receptor allosterically. P14416. DiscoveRx D2 beta-arrestin cells, luminescence, 90 min; 100% = 57 uM dopamine signal. potentiation, % (concentration not given with the values). hit rate 0.23% among 360,000. AID 624464; active = potentiation of 50% or more; inconclusive = 30% to 50%; inactive = 30% or less;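 further: compound concentration not given in the record; tested on top of an EC20 dose of dopamine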
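PathHunter D2 cells, attached overnight at 37 deg C, received compound in DMSO plus dopamine at EC20 (50 nM final) for 90 min at 37 deg C. Beta-arrestin recruitment was read as luminescence after 1 h with detection reagent at ambient temperature.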
ClpP mod: qHTS Assay for Activators of ClpP. ATP-dependent Clp protease proteolytic subunit (Bacillus subtilis (strain 168)), P80244. purified B. subtilis ClpP, FRET peptide cleavage, 20 min. Potency, µM (titrated, usually from 57.5 µM), without a hit: at the top dose activity change, negative = active. hit rate 1.9% among 340,000. AID 651965, 2013; active = well fitted falling curve with a large enough effect; inconclusive = small, poorly fitted or top-dose-only effect; inactive = no such curve, though single readings can be large or run the other way; further: potency means the concentration at half of the fitted maximal effect; the source files actives as falling curves though it sought activators and does not explain the sign; nearly all actives have a fitted effect of over 65% in size; many hits overshoot -100%
Target sequence (P80244 whole entry, looked up): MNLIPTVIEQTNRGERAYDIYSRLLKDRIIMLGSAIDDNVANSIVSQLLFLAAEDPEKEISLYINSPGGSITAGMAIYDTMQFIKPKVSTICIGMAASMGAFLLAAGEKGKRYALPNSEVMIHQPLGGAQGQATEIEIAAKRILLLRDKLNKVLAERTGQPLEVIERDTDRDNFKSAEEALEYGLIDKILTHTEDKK
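ClpP 10 microg/mL final, pH 8 Tris/KCl buffer with BSA, glycerol, Tween-20; compound pinned in; FRET-FV substrate; RT 20 min; Ex320/Em430; ΔFRET vs ADEP 5.8 microM, DMSO, no enzyme.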
gsp ag: gsp mutant agonism; Potency, µM (top dose mostly 76.9 µM), inactives show at the highest dose activation (cAMP increase), most hits filed as activators; gsp mutant cells, cAMP HTRF, 30 min; control for the full effect not named in the record; hit rate 0.13% among 340,000; active = well fitted activation curve with a large enough effect; inconclusive = small, poorly fitted or top-dose-only effect, or another doubt; inactive = no such curve, though single readings can be large or run the other way; cell line not stated here;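 further: phosphodiesterase inhibitor Ro 20-1724 added with compounds to block cAMP breakdown; potency means the concentration at half of the fitted maximal effect; nearly all actives have a fitted effect of over 60% in size; about a fifth of the inactives were tested at one dose only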
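Cells in DMEM/10% FBS with G418 were pretreated with compounds in DMSO plus […] (300 uM stock) for 30 min at 37C. cAMP was measured by HTRF (cAMP-d2 plus anti-cAMP antibody-K) after 30 min at room temperature.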
An asterisk follows results filed as active; ? = inconclusive; . = not tested or not shown; & = joins results of further samples; [ ] = another dose, or the depositor's remark. Random draw from the library (roughly 5.1% active in at least one column).

SMILES | gsp antagonist | Sfp inh | TRPV1 PAM | Menin-MLL FL inh | D2 potentiator | ClpP mod | gsp ag
CC1CCCCN1S(=O)(=O)c1ccc(NC(=O)c2cccs2)cc1 (stereo not given) | -6% | 15% | 7 | 3.7 | 7 | 0.6% | -21%
O=C(N/N=C/c1c(O)n(Cc2ccccc2)c(=O)c2ccccc12)c1cccnc1 | ? | -14% | 7 | ? | 17 | . | -20%[15.4 µM]
COc1ccc(C(C)=O)cc1CSC(=N)N | 6% | 19% | ? | -2.2 | -5 | -2.6% | 11%
CCCCNC(=O)CCc1c(C)nc2c(c(C)nn2-c2ccccc2)c1C | -12% | 14% | -1 | -0.8 | -10 | 3.8%&5.0% | -8%
NC(N)=N/N=C/c1ccc(OCc2ccc(Cl)cc2)cc1 | 4% | 22µM* | 27 | 0.3 | -7 | -3.8% | -34%[inhibitor]
O=C(Nc1ccc(Br)c(Br)c1)C1CCCO1 (stereo not given) | 5% | . | . | . | -4 | . | -3%[15.4 µM]
CCCn1c(CNC(=O)c2ccccc2)nc2ccccc21 | 11% | 11% | 12 | 1.4 | -18 | -0.6% | -75%[inhibitor]
CN1CCN(c2ccccc2/C=C2/C(=O)Nc3ccccc32)CC1 | 6% | -3% | -15 | -5.7 | -13 | -2.6% | ?
O=C(C1CCC1)N1CCc2cc(S(=O)(=O)NCc3ccco3)ccc21 | -1% | 20% | 1 | 2.1 | -29 | -0.3% | ?
COC(Cc1n[nH]c(=S)n1-c1ccc(Cl)cc1)OC | 8% | 25% | 3 | 2.5 | -15 | -0.8% | 2%
COc1ccc(C(C)(C)C)cc1NC(=O)CCc1c(C)noc1C | -29% | . | -13 | . | -5 | 1.5% | 16%
C/C(=N\Nc1cccc(Cl)c1)c1ccc(-n2ccnc2)cc1 | -10% | 2% | 5 | 2.7 | 13 | -0.9% | ?
CC1CCCCN1C(=O)CSc1nc2cc3c(cc2c(=O)n1Cc1ccc2c(c1)OCO2)OCO3 (stereo not given) | -13% | -6% | 5 | 3.6 | -6 | -18% | -56%[inhibitor]
CCCCCC#CCC#CCC#CCC#CCCCC(=O)O | . | -15%&13%&4% | 9 | ? | . | . | .
CCSC(=Nc1ccccc1)N1CCOCC1 | 0% | . | . | . | -3 | . | 15%[15.4 µM]
O=C(CNc1cccc(Cl)c1)c1ccc(Br)cc1 | -1% | -1% | 25 | 7.1 | -67 | -2.1% | -24%
COc1ccc(C2/C=C\CN(C(=O)OCC3c4ccccc4-c4ccccc43)CC(=O)N2Cc2cccc(F)c2)cc1 (stereo not given) | -7% | -4% | . | 7.7[44.5 µM] | . | -11% | .
COc1ccc(CCNC(=O)Cn2cnc3c2c(=O)n(C)c(=O)n3C)cc1OC | 13% | 20% | 22 | 0.7 | -2 | -1.0% | 7%
CC[C@H](C)[C@H]1CNC(=S)N1CC1CCN(CC2CCC(C)CC2)CC1 (stereo not given in full) | 3% | . | . | . | -19 | -6.6% | .
CC1CCN(S(=O)(=O)c2ccc(NC(=O)Cc3ccccc3)cc2)CC1 | 9% | 2% | -12 | -0.1 | 15 | -2.0% | -51%[inhibitor]
CCOc1ccc(C(=O)CCN2CCCCC2)cc1 | 10% | -3% | 4 | 0.9 | 1 | 0.6% | ?
O=C(CCc1ccccc1)Nc1cccc(NC(=O)CCc2ccccc2)c1 | -12% | 3% | 8 | 2.5 | -3 | -0.9% | -3%
COc1ccc(NC(=O)C[C@H]2C(=O)N(C3CCCCC3)C[C@@H]2CSC)cc1 | . | . | . | . | -6 | -1.9% | -20%
N/C(=N\NS(=O)(=O)c1ccccc1Cl)c1ccccn1 | 7% | . | . | . | -2 | . | -8%
COC(=O)COc1ccc2oc(=O)cc(-c3cc4cccc(OC)c4o3)c2c1 | 0% | -23% | -9 | . | 4 | -2.2% | -28%
c1cnc2nc(CSc3ncn[nH]3)cn2c1 | 15% | -17% | 1 | -2.0 | -6 | . | 0%[15.4 µM]
Cc1nnc(SCC(=O)NC2CCS(=O)(=O)C2)n1-c1ccccc1 (stereo not given) | 13% | 7% | 1 | -2.5 | 1 | . | -19%[15.4 µM]
CCCNC(=O)N1CCCC(C(=O)c2cccc(Cl)c2)C1 (stereo not given) | -1% | 18% | -1 | 1.4 | -40 | -1.7% | -45%[inhibitor]
COc1ccc(NC(=O)CN2C(=O)NC3(CC(C)CC(C)(C)C3)C2=O)cc1S(=O)(=O)N1CCCCC1 (stereo not given) | 0% | . | 5 | . | 27 | ? | -72%[inhibitor]
O=C(COC(=O)c1ccc2c(c1)OCO2)Nc1nc(-c2ccccc2)cs1 | -1% | 19% | 3 | 2.4 | 1 | . | 14%
Cc1nccn1CCCN1C(=O)CNC1=S | 13% | -9% | -2 | 7.4 | -6 | . | 3%[15.4 µM]
O=S(=O)(Nc1cc(S(=O)(=O)N2CCOCC2)ccc1N1CCCC1)c1cccs1 | -3% | -4% | 3 | -9.7 | -1 | . | -16%
Cc1nnc(SCC(=O)NC(=O)NCc2ccco2)s1 | 8% | 16% | 7 | -1.5 | -2 | 0.2% | -10%
O=C(COc1ncnc2scc(-c3ccccc3)c12)NC1CCCc2ccccc21 (stereo not given) | 2% | -2% | 19 | 8.1 | -16 | -0.3% | 9%
CNc1c(NC(=O)c2ccc3c(c2)OCO3)c(=O)oc2ccccc12 | 10% | 20% | 1 | -0.7 | 3 | -1.8% | -20%
O=S(=O)(Nc1ccc(N2CCOCC2)cc1)c1ccc(F)cc1F | -14% | 21% | 3 | -3.3 | 5 | . | 2%[15.4 µM]
CCN(CC(=O)NCc1ccc(Cl)cc1)C(=O)COc1ccc(C)cc1C | -36% | -4% | -1 | . | -17 | 2.0% | -3%
COc1ccc2ccccc2c1/C=N/NC(=O)c1cc(C)[nH]n1 | -13% | 5% | 4 | 3.2 | -16 | 0.9% | ?
Cc1ccc(-c2c3c(=O)n(C)c(=O)n(C)c3cn2-c2ccccc2O)cc1 | 13% | 56µM* | 8 | -3.1 | 0 | -17% | 3%
COc1cc(C=C2NC(=O)NC2=O)ccc1O | . | . | . | . | -9 | -4.8% | 0%
CC1(C)CC(=O)C2=C(C1)OC(/N=C/N1CCOCC1)=C(C#N)C2c1ccccc1 (stereo not given) | -4% | 1% | -20 | 2.7 | -3 | -0.5% | -15%
O=C(CNc1cc(S(=O)(=O)N2CCOCC2)ccc1N1CCCC1)Nc1ccc(Cl)cc1F | . | . | . | . | -8 | -5.6% | ?
Cc1ccc(NC2c3ncccc3C(=O)N2C2CCCCC2)cc1 (stereo not given) | 4% | 5% | -1 | 6.8 | -15 | 1.0% | 32%
COC(=O)c1c[nH]n2c(=O)cc(CCl)nc12 | -6% | 0% | -1 | 4.2 | 6 | -21% | 4%
CCOc1ccccc1OCC(=O)Nc1ccc(N2CCOCC2)cc1N1CCOCC1 | -21% | . | -5 | . | -5 | -1.9% | -15%
CC(Oc1cccc(Br)c1)C(=O)N1CCCN(C)CC1 (stereo not given) | 10% | 15% | 18 | . | 8 | -6.1% | -21%
COc1ccc2c(C)cc(C)nc2n1 | 7% | 5% | 5 | -4.5 | -1 | -0.3% | 3%
O=C(O)c1ccc([N+](=O)[O-])c2c1C(=O)c1ccccc1C2=O | 5% | . | . | . | 30 | . | -1%[15.4 µM]
O=C(/C=C/c1cccc([N+](=O)[O-])c1)NC(=S)Nc1ccccc1C(=O)O | . | 40µM* | 12 | -2.1 | . | . | .
COc1ccc(Nc2cc(Cl)nc(N)n2)cc1OC | -4% | 1% | 6 | -1.6 | 0 | . | 1%
CC(=O)Nc1cc(C(=O)c2ccccc2)ccc1N1CCOCC1 | -3% | 4% | 6 | 1.7 | -2 | 35µM* | -12%
Cc1ccc2cc(C(c3nnnn3C(C)(C)C)N3CCCC3)c(=O)[nH]c2c1C (stereo not given) | . | 45µM* | -14 | 3.8 | . | . | .
CCC1CCCCN1C(=O)CCn1ccnc1 (stereo not given) | 4% | 0% | -4 | -2.3 | -7 | -1.4% | -12%
COC(=O)c1cccc(OC(N)=O)c1 | 5% | 13% | 20 | 4.2 | -13 | -1.3% | 6%
COc1ccc(C)cc1S(=O)(=O)N(CC(=O)Nc1cc([N+](=O)[O-])ccc1C)c1ccc(C)c(C)c1 | -2% | 7% | 14 | -0.9 | -15 | -6.6% | -1%
CCOC(=O)Cc1csc(NC(NC(=O)OCC)(C(F)(F)F)C(F)(F)F)n1 | -16% | 14% | 20 | -2.0 | -6 | 1.3% | -15%
CCc1nc(=O)c(-c2ccccc2)c(C)n1-c1ccccc1 | -1% | 20% | 25 | 0.4 | -5 | . | -11%
CC1(C)C([N+](=O)[O-])C(c2ccc(O)cc2)NC(c2ccc(O)cc2)C1[N+](=O)[O-] (stereo not given) | 10% | -3% | -6 | 3.2 | 9 | 1.3% | -2%
O=C(Cn1cncn1)N/N=C/c1c2ccccc2cc2ccccc12 | -19% | 11% | -9 | 1.9 | -1 | -0.3% | 21%
CCN1C(=NCCc2cccs2)N[C@@H](c2cccs2)C(C(=O)OC)=C1C | 3% | -2% | -1 | -2.2 | -16 | -1.4% | .

(cont.)
SMILES | gsp antagonist | Sfp inh | TRPV1 PAM | Menin-MLL FL inh | D2 potentiator | ClpP mod | gsp ag
O=[N+]([O-])c1ccc(COc2ccccc2CN2CCCCC2)cc1 | -4% | . | . | . | -11 | -1.3% | .
O=C(Nc1ccccc1)Nc1ccccc1-n1ccnc1 | 3% | 11% | 7 | -0.5 | -1 | 0.0% | 0%
COC(=O)/C=C1\OC(c2ccccc2)=CC1=O | . | 20µM* | 1 | ? | . | . | .
COc1ccccc1N1CCN(C(=O)CN(c2ccc(C)c(C)c2)S(C)(=O)=O)CC1 | -19% | 15% | 23 | -0.7 | -8 | -1.8% | 5%
O=C(Nc1nnc(S(=O)(=O)N2CCOCC2)s1)c1ccc(F)cc1 | -7% | 23% | -3 | 1.4 | -1 | -2.9%&-13% | 10%
Cc1ccnc(NC(=O)CNC(=O)c2ccco2)c1 | 2% | . | 2 | . | 6 | -1.3% | 6%[15.4 µM]
